# Screening results as filed in PubChem.
# Biofilm kill mix – mixture kills Candida albicans biofilm cells; C. albicans biofilm persisters + clotrimazole, fluorescence viability; primary screen in compound mixtures of four per well; inhibition, % at 7.6 µM; 0.02% of 120,000 active; AID 1242;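 active means inhibition above 30.3% in the primary screen of four-compound pools, then above 30% when the compound was retested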;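 further: compounds exposed to preformed 24 h biofilms for 48 h; the number belongs to the whole pool; some results filed as inactive read as strong as hits; inactives centre near 12; 0% = biofilm with clotrimazole alone and 100% = kill control; retested singly at about 60 µM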
#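 Probe or stimulus – Clotrimazole 50 µg/mL co-treatment · System – C. albicans biofilms · Schedule – 24 h biofilm formation, then 48 h compound exposure, 37 °C · Evaluation – percent inhibition of biofilm viability · Technique – 2-h Alamar Blue fluorescence, 535/590 nm excitation/emission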
# The depositor's hits bear a star. These rows are one share of the data; rates above refer to the full screens.
SMILES,Biofilm kill mix
O=C(Nc1cccc(Oc2ccc(C(=O)O)c(C(=O)O)c2)c1)c1ccc(-c2ccccc2)cc1,16
COc1cc(/C=C/CO)cc(OC)c1OC/C=C(\C)CCC=C(C)C,20
Cc1c(NC(=O)c2cccs2)cccc1[N+](=O)[O-],13
O=C(Nc1ccc2c(c1)CCC2)Nc1ccc2c(c1)OCO2,14
O=C(CN(Cc1ccccc1)C(=O)c1csnn1)NCc1ccccc1,7
O=C(N(c1ccccc1)c1ccccc1)N(c1ccccc1)c1ccccc1,13
O=C(NNC1=NS(=O)(=O)c2ccccc21)c1ccc(Cl)cc1,9
O=C(Nc1ncc(Cc2cccc(C(F)(F)F)c2)s1)C1CCCO1 (stereo not drawn),17
O=S(=O)(NCC(c1ccco1)N1CCN(c2ccccc2)CC1)c1ccc(F)cc1 (stereo not drawn),7
Cc1cc(C)n2ncc(C(=O)O)c2n1,9
CN(CC(=O)NCCc1ccccc1)S(=O)(=O)c1ccccc1,7
O=[N+]([O-])c1ccc2nc(-c3ccccc3)oc2c1,18
Cc1cc(NC(=O)CSc2nnc(-c3ccccc3)c(-c3ccccc3)n2)no1,6
Cc1onc(C(=O)NN)c1-c1csc(COc2ccccc2)n1,19
O=C(c1ccccc1)c1ccc2nc(-c3ccco3)c(-c3ccco3)nc2c1,17
CN(NC1OC(=O)c2ccccc21)c1ncc(Cl)cc1C(F)(F)F (stereo not drawn),16
CC(C)CNC(=O)C1CCN(Cc2ccc(OCc3ccccc3)cc2)CC1,9
Cc1cc(NC(=O)COn2nnc3ccc(S(C)(=O)=O)cc32)ccc1Br,19
COc1cc(/C=C/C(=O)c2cccc([N+](=O)[O-])c2)cc(OC)c1OC,13
COc1ccc(C(C)=O)cc1COC(=O)CNC(=O)c1ccc(Cl)cc1,31
COCCCNc1nc2c(-c3cccc(C)c3)nnn2c2ccccc12,2
O=C(COC(=O)COc1ccccc1F)Nc1ccc(Cl)cn1,27
COC(=O)N1CCCc2cc(C)ccc21,14
CCOc1ccc(-c2cn3ccccc3n2)cc1[N+](=O)[O-],6
O/N=C1\CCCc2ccc(Cl)cc21,13
O=C(COC(=O)/C=C/c1ccc2c(c1)OCO2)Nc1ccc(S(=O)(=O)N2CCCC2)cc1,20
NC(=O)CSc1nnc2ccc(-c3ccc(Cl)cc3)nn12,4
CCCN(CC(=O)Nc1cccc(S(N)(=O)=O)c1)CC(=O)Nc1ccc(F)c(F)c1F,23
O=C(CNc1ccccc1)N/N=C/c1ccc2c(c1)OCCO2,13
COc1ccc2c(c1)nc(SCC(C)O)n2C (stereo not drawn),21
COc1ccc(C(=O)Nc2ccc(Cl)c(S(=O)(=O)Nc3ccccc3OC)c2)cc1,12
Cc1ccc(-c2ccc(/C=N/n3cnnc3)o2)cc1,20
Cc1c(NC(=O)/C(C#N)=C\c2cccs2)c(=O)n(-c2ccccc2)n1C,15
O=C(COC(=O)C1(c2ccc(Cl)cc2)CCCC1)N1CCc2ccccc21,14
Cc1ccc(C(=O)OCC(=O)c2c(N)n(C)c(=O)n(C)c2=O)cc1S(=O)(=O)N1CCCCC1,8
C#CCOCCOCCOCCNc1nc(N2CCN(C(=O)[C@H](CCC(=O)O)n3cc(C(N)Cc4ccc(O)cc4)nn3)CC2)nc(N2CCN(C(=O)[C@H](CCCCN)n3cc(C(N)[C@H](C)CC)nn3)CC2)n1 (stereo partly drawn),0
O=C(Cn1cnc2cc([N+](=O)[O-])ccc2c1=O)NCc1ccc(Cl)cc1,17
CCCNc1nc(C)cc(-c2cc(C(=O)NC3CCCC3)on2)n1,18
CCN(CC)c1ccc(/C=N/Nc2cccc(C)c2)c(O)c1,5
CN(C)c1nc(N(C)C)n(C(=O)c2ccc(F)cc2)n1,18
Cc1ccc(S(=O)(=O)N(C)C)cc1NC(=O)c1cncc(Br)c1,16
COCCNC(=O)c1cc(Sc2nnc(C)s2)nc2ccccc12,25
CCc1cc2ccc(C)cc2nc1SCC(=O)Nc1c[nH]c(=O)[nH]c1=O,10
COc1cccc(Nc2nc3ccccc3n2C(C)C)c1,10
CC1=NN(c2ccccc2)C(=O)C1C(=O)c1cc([N+](=O)[O-])cc([N+](=O)[O-])c1 (stereo not drawn),10
O=Cc1ccccc1OS(=O)(=O)c1ccccc1,11
O=C(CSc1nnc(-c2ccc(C(F)(F)F)cn2)s1)c1ccccc1,20
Cc1ccc(NC(=O)C(=O)NCC2CCCO2)cc1 (stereo not drawn),4
Cc1ccc(CN(Cc2cccnc2)C(=S)Nc2cccc(Cl)c2C)cc1,6
CN(C)S(=O)(=O)c1cc(NC(=O)COC(=O)CCSc2ccc(Cl)cc2)ccc1Cl,5
CCOC(=O)/C=C/C(=O)Nc1nccs1,6
O=C(NCCc1ccccc1)C1CCN(C(=O)c2ccc([N+](=O)[O-])cc2)CC1,5
NS(=O)(=O)c1ccc(NC(=S)NC2CC2)cc1,8
Nc1cc2nn(-c3ccccc3)nc2cc1Cl,7
COc1ccccc1C(=O)N/C(=C\c1ccc2c(c1)OCO2)C(=O)NCCc1nc2ccccc2[nH]1,9
CC(=O)c1nn(-c2cccc(Br)c2)cc1C(=O)c1ccco1,16
COc1ccc(/C=N/NC(=O)c2ccc(COc3ccccc3Cl)o2)c(OC)c1C,4
O=C1OCCC1Sc1nc2ccccc2c(=O)n1-c1ccc(F)cc1 (stereo not drawn),16
CCCCCC(=O)Nc1ccccc1N1CCOCC1,7
Fc1ccc(Oc2ccc3nnc(C(F)(F)F)n3n2)cc1,14
# The results go on:
SMILES,Biofilm kill mix
O=C(Cn1cnc2c(nnn2Cc2ccc(F)cc2)c1=O)OCc1ccccc1,15
CCCS(=O)(=O)Nc1cccc(-c2ccc3nnc(C)n3n2)c1,21
Cc1ccc(C(=O)OCC(=O)N(C)C2CCS(=O)(=O)C2)cc1[N+](=O)[O-] (stereo not drawn),12
COc1ccc(Cn2c(=O)cc(N)n(-c3ccccc3C)c2=O)cc1,17
COc1ccc(N2CCN(C(=O)NCc3ccc(OC)c(Cl)c3)CC2)cc1,11
CSCCC(NS(=O)(=O)c1ccc(C)c(C(=O)O)c1)C(=O)O (stereo not drawn),10
CCOC(=O)c1[nH]ncc1[C@@H]1C[C@H]2CN(Cc3cccc(Cl)c3)C(=O)[C@]23CCCN13,19
CCOC(=O)C1CCCN(c2c(NCCc3ccc(C)cc3)c(=O)c2=O)C1 (stereo not drawn),10
O=C(Cn1nnc2ccccc2c1=O)NCCc1ccccc1,6
O=C(NNC(=O)c1ccc([N+](=O)[O-])cc1)NC1CCCCC1,12
COc1ccccc1N1CCN(C(=O)CSc2nnc3c4ccccc4n(CC(=O)O)c3n2)CC1,14
CN(Cc1cnn(C)c1)S(=O)(=O)c1cccc([N+](=O)[O-])c1,8
CC(=O)Oc1ccc2c(=O)c(N3C(=O)c4ccccc4C3=O)c(C)oc2c1C,4
CN(C)S(=O)(=O)c1ccc(C(=O)Nc2nc3ccccc3[nH]2)cc1,7
COCCCN(C(=S)Nc1c(C)cc(C)cc1C)C(C)c1ccncc1 (stereo not drawn),12
O=C(NC(=S)Nc1ccccn1)c1cncc(Br)c1,20
CN(Cc1cccnc1)Cc1cn[nH]c1-c1ccc(-c2ccccc2)cc1,22
CCN(Cc1ccncc1)C(=O)CCc1nnc(CCc2ccccc2OC)o1,-1
O=[N+]([O-])c1ccc(/C=N/Nc2nc(NCc3ccccc3)nc(N3CCOCC3)n2)cc1,13
COC(=O)c1sc2nc(C)nc(SCC(=O)C(C)(C)C)c2c1C,11
O=C(COC(=O)/C=C/c1cccs1)Nc1ccc2ccccc2c1,14
Cc1sc2ncnc(N/N=C/c3cccc(O)c3)c2c1C,11
C(=N\Nc1nc2ccccc2s1)/c1ccccn1,15
COc1ccc(/C=N/NC(=O)c2nc(-c3ccccc3)n(-c3ccccc3)n2)cc1OC,15
Cc1cccc(/C=C/c2nc3ccccc3c(=O)n2Cc2ccccc2)c1,16
NC1=C([N+](=O)[O-])C(c2ccc(F)cc2)C2=C(CCCC2=O)O1 (stereo not drawn),13
CC(C)(CO)CNC(=O)CCc1nnc(Cc2ccc(-c3ccccc3)cc2)o1,7
C=CCNC(=S)N1CCN(c2ncc(C(F)(F)F)cc2Cl)CC1,18
Cc1ccc(-n2c(Cl)c(Cl)[nH]c(=O)c2=O)cc1,15
CC#CCN1c2ccccc2[C@]23C[C@@H](C(=O)OC)N(C(=O)c4cc(C)oc4C)C2=NC(C(=O)OC)=C(C(=O)OC)[C@H]13,16

# Already shown: an excerpt of the list.
SMILES,Biofilm kill mix
Cc1cccc(/C=C/c2nc3ccccc3c(=O)n2Cc2ccccc2)c1,16
NC1=C([N+](=O)[O-])C(c2ccc(F)cc2)C2=C(CCCC2=O)O1 (stereo not drawn),13
CC(C)(CO)CNC(=O)CCc1nnc(Cc2ccc(-c3ccccc3)cc2)o1,7
C=CCNC(=S)N1CCN(c2ncc(C(F)(F)F)cc2Cl)CC1,18
Cc1ccc(-n2c(Cl)c(Cl)[nH]c(=O)c2=O)cc1,15
CC#CCN1c2ccccc2[C@]23C[C@@H](C(=O)OC)N(C(=O)c4cc(C)oc4C)C2=NC(C(=O)OC)=C(C(=O)OC)[C@H]13,16

# Remaining list, next part.
SMILES,Biofilm kill mix
O=C(O)C(Sc1ccncn1)c1ccccc1 (stereo not drawn),4
CCCNC(=O)Cn1nc(C(F)(F)F)cc1C,14
Cc1ccccc1-n1c(SCC(=O)N/N=C/c2sccc2C)nc2ccccc2c1=O,4
COc1ccc(/C=C/C(=O)c2cc(Br)ccc2O)cc1OC,14
Cc1ccc(C(C(=O)NCc2ccccc2)N(Cc2cccs2)C(=O)c2ccc3c(c2)OCCO3)cc1 (stereo not drawn),12
COc1ccccc1OCC(=O)OCC(=O)Nc1sccc1C(N)=O,13
Cn1cccc1CC(=O)N/N=C/c1ccc(Cl)c([N+](=O)[O-])c1,9
COCCNC(=S)Nc1ccc([N+](=O)[O-])cc1C,12
Cc1cccc(C)c1NC(=O)C(NC(=O)c1ccccn1)c1ccccc1[N+](=O)[O-] (stereo not drawn),16
O=C(c1ccc2c(c1)OCO2)N1CCN(c2ncccn2)CC1,17
CC(C)[C@H](NC(=O)c1ccco1)C(=O)OCC(=O)Nc1ccc(Cl)c(S(=O)(=O)N(C)C)c1,11
Nc1c(C(=O)c2ccccc2)sc2c1c(=O)[nH]c(=O)n2-c1ccccc1,16
Cc1nn2c(-c3ccc(Cl)cc3)nnc2s1,11
CN1C2CCC1CC(NC(=O)c1ccc(Cl)cc1)C2 (stereo not drawn),16
O=C(N/N=C/c1cccc(NC(=O)c2ccc(Cl)cc2)c1)c1cccc(O)c1,20

# Random excerpt: three compounds from above, in no set order.
SMILES,Biofilm kill mix
O=C(N/N=C/c1cccc(NC(=O)c2ccc(Cl)cc2)c1)c1cccc(O)c1,20
O=C(O)C(Sc1ccncn1)c1ccccc1 (stereo not drawn),4
Nc1c(C(=O)c2ccccc2)sc2c1c(=O)[nH]c(=O)n2-c1ccccc1,16

# Additional records
SMILES,Biofilm kill mix
COc1ccc(N(CC(=O)O)S(=O)(=O)c2ccc(C)cc2)cc1Cl,-3
COC(=O)C(C(C)C)N1CCc2c(C)nc3c(C#N)cnn3c21 (stereo not drawn),7
COC(=O)C(O)(CC(=O)Nc1ccc(OC)cc1)C(F)(F)F (stereo not drawn),5
Cc1ccc(-c2ccc3nnc(SCC(N)=O)n3n2)cc1,10
Cc1cc(C)c(C2=NOC3C4CCC(C4)C23)c(C)c1 (stereo not drawn),19
CC1(C)CC[C@]2(C(=O)O)CC[C@]3(C)C(=CCC4[C@@]5(C)CC[C@H](O)C(C)(C)C5CC[C@]43C)C2C1 (stereo partly drawn),17
C=CCn1c(Sc2ncc([N+](=O)[O-])s2)n[nH]c1=O,17
C=CCN(CC=C)CCOc1ccc(C)cc1[N+](=O)[O-],10
CC(C)(C)NS(=O)(=O)c1ccc(NC(=O)C2CCCCC2)cc1,13
CCOC(=O)c1ccc(NC(=O)COc2ccccc2CNC2CCCC2)cc1,7
CCC(CC)=NNc1cccc([N+](=O)[O-])c1,23
CCC(C)(C)C(=O)Nc1cc([N+](=O)[O-])ccc1Cl,15
COc1ccccc1CNC(=O)/C=C/c1ccc(S(=O)(=O)NCc2ccco2)cc1,13
COc1ccc2cc(C(=O)Nc3ccc(O)cc3)sc(=O)c2c1OC,21
S=C(NCc1cccc(Cl)c1)NC1CCCCC1,11
O=C(NCc1ccccn1)c1cccn1-c1ncc(C(F)(F)F)cc1Cl,6
COc1cc(C(=O)OC2CSCC2NC(=O)c2ccccc2)cc(OC)c1OC (stereo not drawn),24
Cc1ccc(NC(=O)c2cc(-c3ccccc3)nn2-c2ccccc2)cc1,-3
COc1ccc(S(=O)(=O)N2CCCCCC2)cc1NC(=O)Cc1ccccc1,13
Cc1ccc(CNC(=O)CNC(=O)c2c(C)nn(C)c2Cl)cc1,1
CNC(=S)Nc1cc(C(=O)N2CCCC2)ccc1N1CCCC1,18
C1COCCNCCOCCOCCOCCN1,3
Cc1cccc(OCCCC(=O)Nc2nc3ccccc3[nH]2)c1,15
Cc1nn(-c2ccc(Cl)cc2Cl)c(=O)c2ccccc12,13
O=C(Nc1nc2c(s1)CCCC2)c1cc(-c2ccccc2)nc2ccccc12,10
COc1ccc(Nc2nc(-c3c(C)nc4ncccn34)cs2)cc1,11
CN(CCc1cnn(C)c1)C(=O)CCc1nnc(CCCc2ccccc2)o1,-38
CCOC(=O)C(NC(=O)Nc1ccc(C(N)=O)cc1)(c1ccccc1)C(F)(F)F (stereo not drawn),13

# Reformatted as tab-separated lines: part of the list above
structure	Biofilm kill mix
O=C(NCc1ccccn1)c1cccn1-c1ncc(C(F)(F)F)cc1Cl	6
COc1cc(C(=O)OC2CSCC2NC(=O)c2ccccc2)cc(OC)c1OC (stereo not drawn)	24
Cc1ccc(NC(=O)c2cc(-c3ccccc3)nn2-c2ccccc2)cc1	-3
COc1ccc(S(=O)(=O)N2CCCCCC2)cc1NC(=O)Cc1ccccc1	13
Cc1ccc(CNC(=O)CNC(=O)c2c(C)nn(C)c2Cl)cc1	1
CNC(=S)Nc1cc(C(=O)N2CCCC2)ccc1N1CCCC1	18
